TRPV1 potentiator = enhances activation of the human vanilloid receptor TRPV1; potentiation, % at 8.33 µM; TRPV1-expressing cells, Fluo-8 calcium influx, capsaicin EC20 potentiation; host cell line not named in the record; control for the full effect not named in the record; AID 540277; 320,000 tested, 0.02% active; Q8NER1; active means potentiation above 80%; inconclusive means 30% to 80%; inactive means below 30%; further: 0% is about no effect
Target sequence (Q8NER1 whole entry, looked up): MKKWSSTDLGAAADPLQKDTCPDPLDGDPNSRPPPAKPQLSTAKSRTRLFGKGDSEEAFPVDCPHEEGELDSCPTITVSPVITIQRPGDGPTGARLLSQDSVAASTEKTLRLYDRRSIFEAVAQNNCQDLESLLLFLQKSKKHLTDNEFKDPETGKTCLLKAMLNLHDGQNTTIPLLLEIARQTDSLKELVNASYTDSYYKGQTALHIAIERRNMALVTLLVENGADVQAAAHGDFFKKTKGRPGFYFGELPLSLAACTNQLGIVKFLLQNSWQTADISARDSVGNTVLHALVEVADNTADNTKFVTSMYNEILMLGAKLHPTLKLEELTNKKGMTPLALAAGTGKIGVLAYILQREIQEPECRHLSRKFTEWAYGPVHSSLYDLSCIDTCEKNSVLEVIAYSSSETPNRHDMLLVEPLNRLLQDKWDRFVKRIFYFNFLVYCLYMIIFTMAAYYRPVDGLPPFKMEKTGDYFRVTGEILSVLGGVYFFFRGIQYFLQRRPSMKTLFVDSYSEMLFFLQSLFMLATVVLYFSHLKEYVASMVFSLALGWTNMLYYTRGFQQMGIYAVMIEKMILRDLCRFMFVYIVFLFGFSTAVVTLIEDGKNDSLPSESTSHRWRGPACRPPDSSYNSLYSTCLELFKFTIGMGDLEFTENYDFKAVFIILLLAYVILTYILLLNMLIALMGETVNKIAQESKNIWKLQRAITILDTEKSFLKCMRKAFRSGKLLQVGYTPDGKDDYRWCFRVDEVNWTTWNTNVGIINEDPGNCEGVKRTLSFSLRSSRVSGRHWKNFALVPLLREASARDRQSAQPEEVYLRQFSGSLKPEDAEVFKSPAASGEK
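Cells expressing TRPV1 were dye-loaded with Fluo-8 and read kinetically: 10 s baseline, 3 min after compound (agonist portion), then 2 min after EC20 capsaicin (allosteric enhancer portion). Calcium-bound dye fluorescence at 480/520 nm.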
Six1-Eya2 inh = blocks human Six1 binding to Eya2; AlphaScreen GST-Six1/His-Eya2 binding, biochemical; active compounds read low; control for the full effect not named in the record; activity change, % (no concentration beside the values); 360,000 tested, 0.56% active; AID 651725; in the data active = activity change below about -65%; inconclusive = about -30% to -65%; inactive = above about -30%; further: on the % scale 0 is the no-effect control and ±100 the full control effect
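Compounds are tested against tagged Six1 and Eya2 proteins bridged by glutathione donor and nickel acceptor beads; after a one-hour incubation at 37 °C without light, AlphaScreen emission is recorded.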
CtBP-E1A blk = CtBP/E1A binding inhibition | AlphaScreen GST-E1A/His-CtBP binding, 1536-well; active compounds read low; control for the full effect not named in the record | activity change, % (test concentration not listed) | 340,000 tested, 0.49% active | AID 651724; in the data active means activity change below about -65%; inconclusive means about -30% to -65%; inactive means above about -30%; further: on the % scale 0 is the no-effect control and ±100 the full control effect
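Steps: dispense buffer (Tris pH 8.0, NaCl 300 mM, TCEP 1 mM, BSA, Tween 20); add 5X protein mix (GST-E1A, His-CtBP, 125 nM each); pin 23 nL compound; 2 h at 37 °C, dark; add 5X beads (50 ug/mL); 1 h; read.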
D2 ag = human D2 receptor agonism in beta-arrestin assay. P14416. DiscoveRx PathHunter D2 beta-arrestin, luminescence, 90 min; 100% = 57 uM dopamine signal. activation, % (concentration not given with the values). 360,000 tested, 0.084% active. AID 624465; in the data active = activation above about 40%; inconclusive = about 15% to 40%; inactive = below about 15%; further: compound concentration not given in the record; the text of the record calls up to 30% inactive
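Agonist mode: compounds alone added to overnight-plated D2 PathHunter cells for 90 min at 37 C, with 57 uM final dopamine (EC100) defining full response. Beta-arrestin recruitment detected by chemiluminescent reagent, read after 1 h at ambient temperature.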
Sfp PPTase inh = Sfp phosphopantetheinyl transferase inhibition | 310,000 tested, 3.5% active | Biochemical Sfp PPTase activity, qHTS | Q9F4F7 | Potency, µM, without a hit: max response, negative = inhibition, hits mostly inhibitors | AID 1490; active means well fitted inhibition curve with a large enough effect; inconclusive means small, poorly fitted or top-dose-only effect, or another doubt; inactive means no such curve, though single readings can be large or run the other way;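 further: the enzyme is Sfp with the accession as filed and its product quenches rhodamine fluorescence; potency means the concentration at half of the fitted maximal effect; 0% = enzyme reaction without inhibitor and -100% = no enzyme wells; top concentration of the series not given in the record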
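Sfp 15 nM + cpd, 15 min RT; start w/ rhodamine-CoA 5 uM, BHQ-2-YbbR 12.5 uM (final); 50 mM Hepes pH 7.6, 10 mM MgCl2, 0.01% NP-40, 0.01% BSA; read 525/598 nm at 0 and 30 min.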
PINK1 modulator = changes PINK1 expression; PINK1 immunofluorescence, high-content cytometry, 24 h; Potency, µM (top dose mostly 76.6 µM), inactives show at the top dose activation (PINK1 increase), hits mostly activators; 410,000 tested, 0.2% active; AID 624263; active = well fitted activation curve with a large enough effect; inconclusive = small, poorly fitted or top-dose-only effect; inactive = flat fitted curve, though single readings scatter; cell line not stated here;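 further: potency means the concentration at half of the fitted maximal effect; % of control where 0% means no effect; nearly all actives have a fitted effect of over 65% in size; a mitochondrial uncoupler was the plate control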
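Measures PINK1 amount and localization on or inside mitochondria by immunofluorescence. Stable cells get compounds at 5 concentrations for 24 hours before fixation and staining; CCCP controls included.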
D2 potentiator = potentiates the human D2 dopamine receptor allosterically; DiscoveRx D2 beta-arrestin cells, luminescence, 90 min; 100% = 57 uM dopamine signal; potentiation, % (no concentration beside the values); AID 624464; P14416; 360,000 tested, 0.23% active; active = potentiation of 50% or more; inconclusive = 30% to 50%; inactive = 30% or less;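 further: compound concentration not given in the record; tested on top of an EC20 dose of dopamine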
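PathHunter beta-arrestin assay in DiscoveRx D2 cells. Compounds were added with an EC20 of dopamine (50 nM final) for 90 min at 37 deg C. Luminescence was read 1 h after detection reagent, with 57 uM dopamine as the EC100 control.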
* hit, by the source's call; ? = inconclusive; . = not tested or not shown; [ ] = dose if it differs, or a comment.

SMILES	TRPV1 potentiator	Six1-Eya2 inh	CtBP-E1A blk	D2 ag	Sfp PPTase inh	PINK1 modulator	D2 potentiator
CC(Oc1ccccc1)C(=O)N1CCN(S(=O)(=O)c2ccc(OC(F)(F)F)cc2)CC1 (stereo unspecified)	.	-3	-3	-0.5	.	-0.5%	-4
CC(=O)Nc1cc(-c2ccccc2)cn2c(-c3ccc(F)c(Cl)c3)cnc12	.	-9	-7	7.8	.	0.8%	-10
O=C(NC1CCCCC1)c1cc([N+](=O)[O-])ccc1N1CCOCC1	-7	0	8	-3.7	24%	1.0%[38.3 µM]	-10
c1ccn2c(CNc3ncnc4sccc34)nnc2c1	2	-3	1	-1.5	9%	-0.6%	3
CCC(C)Nc1nc2c(c(=O)[nH]c(=O)n2C)n1CCOc1ccccc1 (stereo unspecified)	4	-5	8	-4.5	4%	1.0%	1
O=C(NCCSc1ccccc1)c1ccccc1Cl	10	18	2	-0.6	-3%	1.5%	-8
CCCCCCCCC(=O)N/N=C/c1ccccn1	-8	3	7	1.5	-7%	.	15
COc1ccc(-c2noc(CN(C)Cc3ccccc3)n2)cc1	-12	7	.	-4.7	0%	1.8%	-17
CCOc1ccc(C(=O)Cn2cnc3ccccc3c2=O)cc1	2	5	2	-1.4	13%	2.2%	-2
COc1cccc(NC(=O)c2nnn(CCc3ccccc3)c2N)c1	11	2	-8	-2.0	12%	8.5%	-4
O=S(=O)(CCc1nnc(-c2ccccc2)o1)c1ccc2ccccc2c1	25	3	7	2.4	9%	2.7%	-2
O=C(CSc1nnc(COc2ccccc2)o1)Nc1ccc(F)cc1	?	2	-6	4.4	8%	0.4%	9
Cc1ccccc1CNC(=O)c1csc([C@@H]2O[C@H](CO)[C@@H](O)[C@H]2O)n1	.	3	6	-6.2	.	1.2%	-2
O=C(COc1ccc(Cl)cc1)Nc1nc(-c2ccc(S(=O)(=O)N3CCOCC3)cc2)cs1	4	-10	-5	-1.3	-7%	?	10
O=C(CN1C(=O)c2cccc3cccc(c23)C1=O)N1CCOCC1	-4	3	4	-9.7	-2%	0.1%	-7
CCCCn1c(N)c(N(CCOC)C(=O)COC(=O)CCOc2ccc(C)cc2)c(=O)[nH]c1=O	1	7	25	-2.5	.	7.6%	-2
Cc1c(N=C2N=C(NC(=O)Nc3ccc(Cl)cc3)c3ccccc32)c(=O)n(-c2ccccc2)n1C	-12	-4	-23	-2.3	-4%	12%	0
O=C1C[C@@H]2c3c(cccc3CN1Cc1ccccc1F)C[C@@H](O)[C@H]2O	.	-3	.	-0.4	.	0.2%	-6
CCOC(=O)c1c(-c2ccccc2)csc1NC(=O)c1ccc(N2C(=O)CCC2=O)cc1	1	4	-1	1.2	13%	3.9%[38.3 µM]	-15
O=C(CNC(=O)c1ccco1)OCC(=O)c1ccc([N+](=O)[O-])cc1	6	5	19	7.2	?	0.6%	6
Nc1ccccc1C(=O)NCc1ccccc1	-6	-3	5	0.4	7%	-0.8%	-4
CCOC(CNC(=O)c1cccc([N+](=O)[O-])c1)OCC	-3	3	.	-3.7	15%	1.1%	?
COc1ccccc1NS(=O)(=O)c1ccc(C(=O)NCc2ccc(S(N)(=O)=O)cc2)cc1	.	4	-3	-1.0	.	1.6%	-5
COc1ccc(NC(=O)c2cccnc2C(=O)O)c(OC)c1	3	0	-1	-3.1	-23%	-1.4%[38.3 µM]	-1
O=[N+]([O-])c1ccccc1/C=N/OCc1ccccc1	3	-5	3	-3.5	-6%	2.2%	-6
Cc1ccc(-n2c(O)c(C=Nc3ccc4c(c3)OCO4)c3ccccc3c2=O)cc1C	-11	1	1	-2.7	35µM*	?	-12
Cc1ccc(C)n1-c1ccc(C(=O)NN)s1	-2	-14	-12	-3.3	14%	4.5%	-3
O=c1c2ccccc2c(-c2ccc(Cl)cc2)nn1-c1ccccc1	26	3	-4	-0.3	-9%	12%	-9
COCCN1CCN(C(=O)c2ccc3c(c2)S(=O)(=O)c2ccccc2C3=O)CC1	.	3	.	3.1	.	0.7%	5
CC(=O)Nc1ccc(S(=O)(=O)NNC(=O)COc2ccc(Cl)cc2Cl)cc1	19	4	0	-4.3	-12%	4.8%	-1
CN1CCN(C(=O)C2=C[C@H](C3CCCCC3)C[C@H](OCc3ccc(CO)cc3)O2)CC1	7	3	-16	-0.3	-3%	-0.5%	-24
COCCN(CCOC)C(=S)Nc1ccccc1Cl	-5	-6	7	1.5	11%	-0.2%	-5
CNc1nnc(SCC(=O)c2c(N)n(C3CC3)c(=O)[nH]c2=O)s1	6	-3	2	-3.8	.	-3.6%	-66
CCCCN1C(=O)C(=O)N(CC(=O)Nc2cc(OCC)c(N3CCOCC3)cc2OCC)C1=O	-7	17	8	-3.5	-11%	-0.8%	-4
O=C(NCCn1cccn1)c1ccc(OC2CCN(C(=O)C3CC3)CC2)cc1	15	6	-10	-2.3	9%	-0.2%	-2
CCOC(=O)c1ccc(NC(=S)NCCc2ccccc2)cc1	-7	1	-1	-0.5	7%	-0.8%	-3
CCOC(=O)c1ccc(NS(=O)(=O)c2cc3c(cc2C)NC(=O)CO3)cc1	-4	-4	3	-2.5	1%	-1.1%	1
CC(CNC(=O)CCn1ccc2cc(S(=O)(=O)N3CCCC3)ccc21)c1ccccc1 (stereo unspecified)	-3	1	4	0.4	10%	-0.5%	-9
Cc1ccc(NS(=O)(=O)c2ccc(C(=O)N3CC(C)OC(C)C3)cc2)cc1 (stereo unspecified)	?	0	0	-0.5	-7%	0.6%	-6
CN(C(=O)COc1coc(CN2CCN(c3ccccc3)CC2)cc1=O)c1ccccc1	-2	-1	5	-4.0	.	0.5%	-29
CCc1nnc(NC(=O)c2cc(-c3ccccc3)nn2-c2ccccc2)s1	5	-3	-2	-1.3	-8%	-5.0%[38.3 µM]	2
CN(CC(=O)Nc1cccc(F)c1)C(=O)c1ccccc1CCc1ccccc1	3	-3	2	-6.5	.	?	-20
C[C@H]1COc2cc(N3CCC[C@H]3CO)ccc2S(=O)(=O)N1	.	1	-1	.	.	-0.7%	.
O=[N+]([O-])c1ccc(C2=NN(CCO)C(=Nc3ccc(OC(F)(F)F)cc3)SC2)cc1	0	-13	?	-2.9	-19%	1.4%	1
CNC(=S)NNC(=O)CNc1ccc(C)c(Cl)c1	?	-2	.	-0.4	6%	1.0%	16
CCCN(C(=O)/C=C/c1ccco1)c1c(N)n(Cc2ccccc2)c(=O)[nH]c1=O	-7	4	-1	-6.8	11%	2.1%	-4
CCN(CC)S(=O)(=O)c1ccc(NC(=O)Cn2cnc3ccccc3c2=O)cc1	4	1	2	-3.4	10%	-1.2%	3
COCCn1c(N)c(N(Cc2ccccc2)C(=O)COc2ccc(F)cc2Cl)c(=O)[nH]c1=O	-7	3	-3	-5.5	.	-5.8%	5
CCOC(=O)c1cnc2c(cnn2C)c1NCCC#N	?	-2	0	-0.8	-3%	3.6%	-3
COc1ccc(NC(=O)CCN2CCN(C/C=C/c3ccccc3)CC2)cc1	11	-2	.	-1.1	5%	-1.1%	-57
NC(=S)NN=Cc1nccc2c(N)cccc12	.	-93*	-88*	3.4	.	-0.5%	-7
COCCn1c(C)cc(C(=O)CSc2nncn2-c2ccccc2)c1C	2	-4	-6	-4.2	9%	8.4%[38.3 µM]	0
CN(c1ccc(C(=O)NCc2cccnc2)cc1)S(C)(=O)=O	2	9	5	-1.3	20%	-2.2%	-11
CCO[C@H]1OC(C(=O)N2CCN(Cc3ccc4c(c3)OCO4)CC2)=C[C@@H](C2CC2)[C@@H]1CCCO	29	3	1	-0.2	1%	1.9%	-46
Cc1cc(C(=O)Nc2c(C)n(C)n(-c3ccccc3)c2=O)c(C)o1	14	3	4	0.1	12%	8.3%[38.3 µM]	-3
COc1cccc(C(C(=O)NC2CCCCC2)N(Cc2ccco2)C(=O)c2ccccn2)c1 (stereo unspecified)	-2	14	3	-0.4	1%	0.8%	4
Cc1cc2oc(=O)cc(CN3CCOCC3)c2cc1C(C)C	-18	-1	-9	-6.9	6%	-0.4%	-3
CSc1nnc(-c2ccc(Br)s2)n1C	?	-4	0	0.1	5%	0.4%	-5
O=C1c2ccccc2NC(c2cccc(O)c2)N1c1ccccc1 (stereo unspecified)	3	7	4	-7.0	15%	-0.1%	-5
CC(=O)Nc1cccc(NC(=O)CCNC(=O)c2ccc(Cl)cc2)c1	18	3	3	1.6	12%	-2.4%	-8
COc1ccc(/C=C(\C#N)C(=O)ONC2=NCCCCC2)cc1	-3	2	.	9.7	-6%	0.9%	7
C(=NCCCN1CCOCC1)c1ccc2c(c1)OCO2	24	1	8	-1.9	-12%	3.0%[38.3 µM]	-8

As a short view, part of the list above.
SMILES	TRPV1 potentiator	Six1-Eya2 inh	CtBP-E1A blk	D2 ag	Sfp PPTase inh	PINK1 modulator	D2 potentiator
CN(c1ccc(C(=O)NCc2cccnc2)cc1)S(C)(=O)=O	2	9	5	-1.3	20%	-2.2%	-11
CCO[C@H]1OC(C(=O)N2CCN(Cc3ccc4c(c3)OCO4)CC2)=C[C@@H](C2CC2)[C@@H]1CCCO	29	3	1	-0.2	1%	1.9%	-46
Cc1cc(C(=O)Nc2c(C)n(C)n(-c3ccccc3)c2=O)c(C)o1	14	3	4	0.1	12%	8.3%[38.3 µM]	-3
COc1cccc(C(C(=O)NC2CCCCC2)N(Cc2ccco2)C(=O)c2ccccn2)c1 (stereo unspecified)	-2	14	3	-0.4	1%	0.8%	4
Cc1cc2oc(=O)cc(CN3CCOCC3)c2cc1C(C)C	-18	-1	-9	-6.9	6%	-0.4%	-3
CSc1nnc(-c2ccc(Br)s2)n1C	?	-4	0	0.1	5%	0.4%	-5
O=C1c2ccccc2NC(c2cccc(O)c2)N1c1ccccc1 (stereo unspecified)	3	7	4	-7.0	15%	-0.1%	-5
CC(=O)Nc1cccc(NC(=O)CCNC(=O)c2ccc(Cl)cc2)c1	18	3	3	1.6	12%	-2.4%	-8
COc1ccc(/C=C(\C#N)C(=O)ONC2=NCCCCC2)cc1	-3	2	.	9.7	-6%	0.9%	7
C(=NCCCN1CCOCC1)c1ccc2c(c1)OCO2	24	1	8	-1.9	-12%	3.0%[38.3 µM]	-8
